Bioassay records (PubChem BioAssay)
HNF4A DNA FP: change in binding of human HNF4 alpha to DNA. P41235. HNF4a-FITC DNA binding, fluorescence polarization, 1 h. activity change, % at 10 µM. hit rate 0.3% among 360,000. AID 1224865; in the data active means activity change above about 30%, passing the limit was not always enough;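 further: controls were the assay level and a saturating level of protein; the project sought stronger binding though the title names inhibitors; some compounds called inactive have numbers as strong as hits; positive values seem to mean higher polarization but the record does not say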
Target sequence (P41235 whole entry, looked up): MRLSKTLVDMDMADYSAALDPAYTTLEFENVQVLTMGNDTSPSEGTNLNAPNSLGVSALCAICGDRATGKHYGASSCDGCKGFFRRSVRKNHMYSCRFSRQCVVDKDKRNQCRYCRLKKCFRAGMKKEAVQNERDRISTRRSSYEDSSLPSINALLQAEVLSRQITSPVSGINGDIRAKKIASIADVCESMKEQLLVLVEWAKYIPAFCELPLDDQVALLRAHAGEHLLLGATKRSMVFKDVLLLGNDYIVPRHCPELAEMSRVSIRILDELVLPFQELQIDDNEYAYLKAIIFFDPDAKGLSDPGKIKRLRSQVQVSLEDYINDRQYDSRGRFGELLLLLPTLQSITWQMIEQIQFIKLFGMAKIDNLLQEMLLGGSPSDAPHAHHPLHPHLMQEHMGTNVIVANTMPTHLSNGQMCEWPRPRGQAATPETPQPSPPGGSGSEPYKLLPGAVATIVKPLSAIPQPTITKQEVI
Beta2AR agonist: activates human beta-2 adrenergic receptor causing internalization. P07550. Am2.2-beta2AR cells, FAP receptor internalization, flow cytometry; reference of the scale not given here. response, % (test concentration not listed). AID 504454. hit rate 0.43% among 340,000;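 active means response above a set limit, near 3 SD of response in nonfluorescent compounds, cut at about 42% in these data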;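 further: stock transfer was 100 nL into about 11 µL; a reference agonist was the positive control; negative values mostly stem from fluorescent compounds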
Target sequence (P07550 whole entry, looked up): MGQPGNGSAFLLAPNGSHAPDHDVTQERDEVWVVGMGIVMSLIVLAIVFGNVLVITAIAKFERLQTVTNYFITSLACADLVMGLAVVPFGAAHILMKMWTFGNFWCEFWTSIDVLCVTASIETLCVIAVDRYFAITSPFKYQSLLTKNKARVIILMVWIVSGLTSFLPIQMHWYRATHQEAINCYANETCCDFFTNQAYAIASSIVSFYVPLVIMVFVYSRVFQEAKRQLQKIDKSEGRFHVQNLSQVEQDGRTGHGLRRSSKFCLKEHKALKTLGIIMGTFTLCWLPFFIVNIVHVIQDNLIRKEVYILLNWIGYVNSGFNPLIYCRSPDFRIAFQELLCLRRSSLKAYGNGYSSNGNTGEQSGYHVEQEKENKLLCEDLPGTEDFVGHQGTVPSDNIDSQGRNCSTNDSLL
Calb FLC: affects C. albicans growth with fluconazole | growth inhibition, % (no concentration beside the values) | hit rate 0.57% among 300,000 | AID 1979 | C. albicans CaCi-2 (fluconazole-resistant clinical isolate) + fluconazole, Alamar Blue growth, 48 h;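 active means most replicates above 75%; inconclusive means exactly half above 75%; inactive means most below 75%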;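 further: all wells also contain fluconazole at 8 µg/ml as a sub-toxic cotreatment; 0% = median of DMSO wells and 100% = median of geldanamycin control wells; wells of about 8 µL received 7.5 nL stock; the first replicate is given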
LANA-H2A inh: blocks KSHV LANA binding to histone H2A/H2B; cell-free LANA-H2A/H2B peptide, fluorescence polarization; inhibition, % (test concentration not listed); hit rate 0.6% among 320,000; AID 2629; in the data active means inhibition mostly above about 10%, no sharp cut-off; inactive means mostly below about 6.7%;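 further: stock transfer was 7.5 nL into about 10 µL; 0% = median of vehicle wells and 100% = median of positive control wells; one replicate is shown; the record names a cut of 25% in any replicate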
RanGTP-Imp inh: disruptors of Ran-importin-beta complex formation – biochemical, FRET, CFP-Ran, YFP-importin-beta, homogeneous, primary screen; cell-free CFP-Ran/YFP-importin-beta FRET ratio; inhibition, % (no concentration beside the values); hit rate 1.1% among 300,000; AID 2216;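 active means most replicates above 15%; inconclusive means exactly half above 15%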;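 further: 0% = DMSO wells and 100% = Ran loaded with GDP instead of GTP; wells of about 40 µL received 100 nL stock; the first replicate is given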
Vif A3G: inhibitors of Vif binding to APOBEC3G peptide, primary screen, biochemical, TR-FRET, GST-Vif 1-94, biotin-A3G peptide, dose response retest (AID 1117319); hit rate 0.57% among 260,000; TR-FRET GST-Vif / biotin-A3G peptide binding; higher % means a stronger effect; test concentration not given here; strong numbers were not always called active; inhibition, %, or IC50 in µM where a hit was titrated;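 active means above the screen mean plus three standard deviations and confirmed in dose response; inconclusive means results disagree or hit not tested in dose response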;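 further: Vif residues 1-94 fused to GST binding biotinylated APOBEC3G peptide 110-148; 0% = full assay without inhibitor and 100% = GST in place of GST-Vif; retest series ran down from 100 µM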
ALR H2O2 inh: human ALR oxidase inhibition via reduced H2O2 | purified ALR, DTT oxidation, H2O2 HRP-luminol luminescence | inhibition, % (no concentration beside the values) | hit rate 3.8% among 290,000 | AID 485317;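 active means mean and each replicate at 75% or more; inconclusive means only one of the two met; inactive means neither met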;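 further: stock transfer was 7.5 nL into about 7.5 µL; 0% = neutral wells and 100% = wells with inactivated enzyme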
Target sequence (P55789 whole entry, looked up): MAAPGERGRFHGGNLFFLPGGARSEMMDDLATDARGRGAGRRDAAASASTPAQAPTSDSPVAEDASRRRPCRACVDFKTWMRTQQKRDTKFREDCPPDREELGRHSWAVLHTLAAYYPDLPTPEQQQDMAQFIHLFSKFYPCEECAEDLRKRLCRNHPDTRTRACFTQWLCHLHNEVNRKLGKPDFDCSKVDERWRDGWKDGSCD
Numbers without * were called inactive; ? = inconclusive; / = no result given.

SMILES	HNF4A DNA FP	Beta2AR agonist	Calb FLC	LANA-H2A inh	RanGTP-Imp inh	Vif A3G	ALR H2O2 inh
Cc1ccc(C(=O)N2CCC(n3nccc3NC(=O)Nc3cccc(F)c3)CC2)cn1	7.0	-2	-3	-0.8	0.1	-3%	-34
Cc1cccnc1CCNCc1c(C(=O)N2C[C@@H](C)O[C@@H](C)C2)nc2ccc(Cl)cn12	-1.8	-8	-5	4.7	3.7	/	-6
CNc1ccccc1C(=O)OC	1.8	-9	5	-1.2	3.0	/	/
COc1ccc(Cl)cc1NC(=O)CN(C)C1CCCCC1	1.1	-2	7	0.5	7.9	0%	3
CCCSC1=C(C#N)C(c2ccccc2C)C(C(=O)OC)C(=O)N1 (configuration not stated)	-4.0	3	3	-0.5	-3.1	20%	15
CN(C)c1ccc(/C=N/NC(=O)c2cc(=O)[nH]c3ccccc23)cc1	0.9	-5	2	-0.8	2.4	2%	-4
COc1cc(/C=C2\C(=O)N(CCC#N)N=C2C)ccc1OCC(=O)Nc1ccccc1	-2.4	10	5	-5.9	1.9	/	-18
Cc1ccc(S(=O)(=O)CCC(=O)OCC(=O)N(Cc2ccccc2)C(C)C)cc1	2.7	0	7	-5.2	-0.9	-5%	4
COc1ccccc1CCC(=O)N(C)CC(=O)Nc1ccc(Cl)c(C(F)(F)F)c1	-0.7	5	-7	-2.6	2.4	/	-24
O=[N+]([O-])c1cc(NCCO)c(N2CCCCCC2)c2nonc12	0.3	-4	-12	-3.2	-4.6	-7%	-12
CCOC(=O)C1=C(N)OC2=C(C(=O)CCC2)C1c1ccccc1OCC (configuration not stated)	1.4	0	-1	-0.9	2.5	0%	78*
Cc1ccsc1CNC1C2CC3CC(C2)CC1C3 (configuration not stated)	-1.0	0	-35	0.1	0.7	1%	-2

Exported bar-delimited: 11 of the compounds above.
SMILES | HNF4A DNA FP | Beta2AR agonist | Calb FLC | LANA-H2A inh | RanGTP-Imp inh | Vif A3G | ALR H2O2 inh
Cc1ccc(C(=O)N2CCC(n3nccc3NC(=O)Nc3cccc(F)c3)CC2)cn1 | 7.0 | -2 | -3 | -0.8 | 0.1 | -3% | -34
Cc1cccnc1CCNCc1c(C(=O)N2C[C@@H](C)O[C@@H](C)C2)nc2ccc(Cl)cn12 | -1.8 | -8 | -5 | 4.7 | 3.7 | / | -6
CNc1ccccc1C(=O)OC | 1.8 | -9 | 5 | -1.2 | 3.0 | / | /
COc1ccc(Cl)cc1NC(=O)CN(C)C1CCCCC1 | 1.1 | -2 | 7 | 0.5 | 7.9 | 0% | 3
CCCSC1=C(C#N)C(c2ccccc2C)C(C(=O)OC)C(=O)N1 (configuration not stated) | -4.0 | 3 | 3 | -0.5 | -3.1 | 20% | 15
CN(C)c1ccc(/C=N/NC(=O)c2cc(=O)[nH]c3ccccc23)cc1 | 0.9 | -5 | 2 | -0.8 | 2.4 | 2% | -4
COc1cc(/C=C2\C(=O)N(CCC#N)N=C2C)ccc1OCC(=O)Nc1ccccc1 | -2.4 | 10 | 5 | -5.9 | 1.9 | / | -18
Cc1ccc(S(=O)(=O)CCC(=O)OCC(=O)N(Cc2ccccc2)C(C)C)cc1 | 2.7 | 0 | 7 | -5.2 | -0.9 | -5% | 4
COc1ccccc1CCC(=O)N(C)CC(=O)Nc1ccc(Cl)c(C(F)(F)F)c1 | -0.7 | 5 | -7 | -2.6 | 2.4 | / | -24
O=[N+]([O-])c1cc(NCCO)c(N2CCCCCC2)c2nonc12 | 0.3 | -4 | -12 | -3.2 | -4.6 | -7% | -12
CCOC(=O)C1=C(N)OC2=C(C(=O)CCC2)C1c1ccccc1OCC (configuration not stated) | 1.4 | 0 | -1 | -0.9 | 2.5 | 0% | 78*

Later entries
SMILES	HNF4A DNA FP	Beta2AR agonist	Calb FLC	LANA-H2A inh	RanGTP-Imp inh	Vif A3G	ALR H2O2 inh
CCOc1ccc(NC(=O)C2CC(=O)N(Cc3ccco3)C2)cc1 (configuration not stated)	-3.5	6	/	-4.7	/	/	7
Cc1nc(C)c(-c2ccc(SCc3ccccc3F)nn2)s1	-0.7	-8	-2	1.8	0.3	/	-9
CCCn1nc(NC(=O)c2cccs2)c2cc3ccc(C)cc3nc21	-3.7	-1	-22	0.5	54*	6%	-1
Cn1cccc1C(=O)OCC(=O)NCCc1ccccc1	4.3	-8	/	0.6	/	/	6
Fc1ccccc1Nc1nc2ccccc2o1	2.9	5	-12	-0.8	-4.6	3%	-30
CCc1ccc(CNC(=O)CCn2ccc3cc(S(=O)(=O)N4CCCC4)ccc32)cc1	-3.4	3	4	-3.2	1.1	/	-2
N#Cc1c(NC(=O)CSc2ncn[nH]2)sc2c1CCCCC2	1.6	-15	-3	-2.1	0.2	3%	3
CCCCn1c(N)c(N(CCOC)C(=O)CN(C)S(=O)(=O)c2ccc(F)cc2)c(=O)[nH]c1=O	-4.1	4	-5	/	0.0	-8%	/
COc1ccc(CN2CC(C(=O)NCCc3ccc(Cl)cc3)CC2=O)cc1 (configuration not stated)	-0.9	1	8	-4.6	0.1	/	0
O=C(CN1CCN(c2ccc(Cl)cc2)CC1)N1CCCC1	1.5	1	16	1.3	4.3	-3%	98*
CC(=O)NNC(=S)Nc1cccc(F)c1	1.1	-3	0	-1.0	-0.2	1%	23
CCOc1ccc(CC(=O)NNC(=S)NC)cc1	-2.5	7	-2	5.8	-4.6	/	/
CCCCN(CCCC)C(=O)c1ccccc1NC(=O)CN1C(=O)c2ccccc2C1=O	0.4	13	10	-0.3	0.8	9%	-10
O=C(O)c1ccc2c(=O)[nH]c(CCl)nc2c1	-0.7	5	-2	4.8	3.9	3%	1
CC[C@@H](C)C(N)c1cn([C@@H](CCC(=O)O)C(=O)N2CCNCC2)nn1 (some centres not stated)	-4.4	1	-5	0.2	?	/	-15
Cc1[nH]c2ccccc2c1C(=O)CN1C(=O)NC(C)(c2ccc(Cl)cc2Cl)C1=O (configuration not stated)	0.1	-7	11	2.1	2.9	70%	-1
O=C(N/N=C/c1ccc(O)cc1)c1ccc(COc2cc(Cl)ccc2Cl)o1	-0.8	49*	2	-2.0	4.3	-1%	28
O=C(NCc1ccc(F)cc1)C1CCN(S(=O)(=O)c2cccnc2)CC1	3.1	3	-3	0.6	1.9	0%	-7
O=C(O)CC(C(=O)O)N1C(=O)/C(=C/C=C/c2ccco2)SC1=S (configuration not stated)	-41	1	1	12	-5.2	0.96µM*	-21
Cc1cc(C)c(C(=O)COC(=O)c2cc([N+](=O)[O-])ccc2NCCO)cc1C	-1.7	2	43	0.0	-0.3	20%	-13
CCOC(=O)CNC(=O)CSc1ccc2nnc(-c3ccc(F)cc3)n2n1	2.5	2	4	3.7	-0.7	10%	0
Cc1ccc(C)c(CN2C(=O)NC3(CCCCCC3)C2=O)c1	-3.5	8	3	-2.8	3.4	/	-2
O=C(COC(=O)c1ccc(Br)o1)NCc1cccs1	-4.6	-3	-13	-5.5	5.6	7%	-3
CC(=O)c1ccc(S(=O)(=O)NC2CC(=O)N(c3ccc(C)cc3)C2)cc1 (configuration not stated)	-0.7	-2	4	1.4	-0.9	-4%	-2
CCOC(=O)Cc1sc(N)nc1C	0.3	-9	-13	3.4	3.6	/	9
CC(C)CCn1nnnc1C(c1ccc(N(C)C)cc1)N1CCN(C(=O)c2ccco2)CC1 (configuration not stated)	-3.6	-1	2	-7.4	0.1	1%	28
COC(=O)/C=c1\[nH]c2nnc(C)n2c1=O	1.7	-1	5	5.5	-4.8	23%	-8
C=C(C)CNC(=S)Nc1cccc(N)n1	-0.2	2	1	/	1.7	9%	/
O=C(CN(CC1CCCO1)C(=O)CNS(=O)(=O)c1ccc(F)cc1)NCc1ccco1 (configuration not stated)	-6.4	-3	?	-0.1	-2.3	1%	-9
CCCCc1ccc(Nc2ncccc2C#N)cc1	-2.2	-16	1	8.2	-0.6	-3%	-8
CCC(C)N(C(=O)c1csnn1)C(C(=O)NCc1ccc(F)cc1)c1ccccc1F (configuration not stated)	0.7	7	3	0.0	-0.5	/	-51
CCOC(=O)c1c(C)[nH]c(C(=O)Cn2c(=O)oc3ccccc32)c1C	1.0	1	-9	6.1	3.1	-7%	-3
Cc1nc(NCCc2ccccc2)c2nnn(Cc3ccccc3Cl)c2n1	1.1	-13	2	-0.8	8.0	/	/
CCCc1cc(C(=O)Nc2ccc(OC)cc2[N+](=O)[O-])cs1	-2.3	-4	-4	/	-4.8	/	/
COc1ccccc1CNCc1cccs1	-2.7	-4	-15	0.2	?	1%	-7
Cc1cccc(C)c1NC(=O)COC(=O)C1CC(=O)N(Cc2ccccc2)C1 (configuration not stated)	-3.5	3	-3	-1.5	-3.1	-3%	-1
Cc1ccc2nc(C)/c(=N\O)c(C)nc2c1	6.8	-2	30	0.0	-4.1	15%	?
COc1ccc(Cl)cc1NC(=O)CN(C)C(=O)c1cccc2cccnc12	-3.1	7	/	-0.6	/	/	-9
COc1cccc(NC(=O)N2CCCC2C(=O)NCc2ccc(Cl)cc2)c1 (configuration not stated)	-3.1	-5	4	0.7	1.9	/	-21
O=C1CC(N2CCOCC2)C(=O)N1Cc1ccc(N2CCCC2=O)cc1 (configuration not stated)	2.7	-3	2	-1.1	3.1	-4%	-9
CCC(=O)Nc1ccc(C(=O)Nc2cccc(C)n2)cc1	3.7	-5	-14	-2.8	7.4	6%	0
CCc1[nH]nc2c1C(c1cccnc1)C(C#N)=C(N)O2 (configuration not stated)	-0.5	-1	7	8.5	0.4	-1%	20
COc1ccc(C2/C(=C(/O)c3ccccc3)C(=O)C(=O)N2CCN2CCOCC2)c(OC)c1 (configuration not stated)	1.4	2	-3	-7.8	2.1	24%	-8
Cc1cc(-c2nc(C)c(-c3nnc(SCC(=O)Nc4cc(Cl)cc(Cl)c4)n3C)s2)no1	-5.9	-7	-5	-5.6	-2.0	-73%	-4
CCOc1cc(CO)cc(Br)c1OCC(=O)Nc1ccccc1C	-0.2	-8	6	-0.4	-2.7	-5%	-5
Cc1nn(Cc2cccc(C(=O)N3N=C(C(F)F)CC3(O)C(F)F)c2)c(C)c1[N+](=O)[O-] (configuration not stated)	3.8	6	-17	4.4	-1.5	4%	2
O=S(=O)(Nc1ccc(Cc2ccncc2)cc1)c1ccc(Br)cc1	-0.5	-10	-21	-6.7	-2.2	72%	-5
O=C(CSc1ncn(-c2ccccc2)n1)Nc1ccc2c(c1)OCO2	0.0	-1	-3	-0.3	-2.5	-5%	-19
COc1ccc(NC(=O)CS(=O)CC(=O)Nc2cccc3cccnc23)cc1 (configuration not stated)	-0.3	-3	2	-3.9	-3.4	/	-9
O=C(O)c1ccccc1-c1ccccc1C(=O)NCCCO	-6.8	1	16	-0.7	5.0	-1%	-6
CCOC(=O)c1sc(NC(=S)NC(=O)c2cccc(Cl)c2)c(C(=O)OCC)c1C	2.3	-7	0	-5.6	-2.0	?	-2
Cc1ccc(NC(=O)NC2CCN(S(=O)(=O)c3ccc(F)cc3)CC2)cc1	-2.1	6	-1	12	0.4	-4%	0
Cc1ccc(NC(=O)NCCSc2ccc(C)cc2)cc1	6.4	3	-12	-11	-2.2	?	-3
CSc1ccc(/C=C2\CCn3c2nc2cc(C(=O)O)ccc2c3=O)cc1	1.1	11	8	-4.5	1.6	3%	/
CC(=O)NCCc1c[nH]c2ccc(OCc3ccccc3)cc12	3.0	2	1	-1.4	2.7	/	-2
O=C(Nc1cc(-c2nc3ccccc3s2)ccc1Cl)c1ccc2c(c1)OCO2	-0.3	-6	0	2.1	?	-8%	-6
CCCS(=O)(=O)c1nc(C)cc(C)c1S(C)(=O)=O	1.4	-2	-4	-0.4	-1.7	5%	0
Cc1c(CNC(=O)C2CC2)c(-n2cccc2)n(Cc2ccccc2)c1C	2.6	-8	-8	1.3	0.9	-2%	-3
CCCCn1c(N)c(N(CC)C(=O)c2cc(CC)c(C)s2)c(=O)[nH]c1=O	0.1	1	-3	7.8	-2.4	1%	-1
